# Bead autofluor: flagged as autofluorescent in microsphere protease counterscreen; compound autofluorescence counterscreen, microsphere flow cytometry; active compounds read high; fluorescence intensity (concentration not given with the values); 3.1% of 360,000 active; AID 624483;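 active means at least 3 SD above the mean of all compounds, about 16000 in these data; inconclusive means too few beads counted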;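 further: 100 nL of 1 mM stock went into each well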
# Mtb hypoxia inh: PubChem AID 1159583; 0.1% of 300,000 active; fluorescence inhibition, % (concentration not given with the values); M. tuberculosis hypoxia-regulated fluorescent reporter, fluorescence;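 active means 35 to 45% if threefold the growth effect, above 45% if 1.5-fold the growth effect; inactive means the rest, general growth blockers included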;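 further: wells of about 50 µL received 100 nL stock; 0% = vehicle wells and 100% = reference inhibitor wells; whole bacteria with a GFP reporter of the hypoxia response; strong numbers were not always called active; many hits fall short of the cut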
# Sa RN4220 lethal: growth inhibition of S. aureus RN4220, primary screen, OD600 | 0.33% of 330,000 active | AID 1259311, 2017 | 16 h | inhibition, % (test concentration not listed);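 active means z-score of -3 or lower and OD600 up to 0.18 on both plates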;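 further: plate controls were untreated cells for no effect and reference antibiotic for full effect; stock transfer was 100 nL into about 80 µL; one replicate is shown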
# BJeLR viability: MLPCN primary cell-based screen for lethality selective to Ras in HRASV12 cells; inhibition, % (concentration not given with the values); 0.17% of 300,000 active; BJeLR (HRASV12) viability, CellTiter-Glo ATP luminescence, 48 h; reference of the scale not given here; AID 1554, 2009;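 active means replicate mean above 50%; inconclusive means above 50% but judged a plate artefact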;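 further: 50 nL library stock added to about 25 µL; numbers are from one replicate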
# PrP 5UTR inh: inhibition of PrP 5' UTR reporter expression; AID 488862, 2010; cell-based PrP 5' UTR mRNA reporter, plate reader; 0.35% of 340,000 active; inhibition, % (no concentration beside the values);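 active means every replicate at 50% or more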;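 further: 0 = median of the neutral control wells; tested in H4 reporter cells; numbers are from one replicate; inactives centre near -14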
# ugtP null kill: growth inhibition of ugtP-null S. aureus, primary screen, RN4220 ugtP deletion, OD600; 16 h; some inactives read as strong as hits; 0.54% of 330,000 active; growth inhibition, % (concentration not given with the values);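 active means z-score under -3 and OD600 up to 0.15 on both plates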;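 further: plate controls were untreated wells for no effect and antibiotic for full effect; wells of about 80 µL received 100 nL stock; the first replicate is given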
# Mtb hypoxia inh growth: further read-out of Mtb hypoxia inh, marked with its call; growth inhibition, %; measured here: M. tuberculosis growth (absorbance);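 0% = vehicle and 100% = reference antibiotic; read after six days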
# * marks the source's active call; other numbers are inactive results; ? = inconclusive; . = no result given.
no.	SMILES	Bead autofluor	Mtb hypoxia inh	Mtb hypoxia inh growth	Sa RN4220 lethal	BJeLR viability	PrP 5UTR inh	ugtP null kill
1	Cc1[nH]nc(-c2ccc(OCc3cnn(-c4ccccc4)c3)c(C)c2O)c1Oc1ccccc1	2954	.	.	-6.2	2.3	-13.9	19.8
2	CC(C)c1ccc(N=C2N=C(N)c3ccccc32)cc1	3562	14.1	1.2	4.9	-5.5	-69.5	-1.2
3	O=C(O)c1ccc(C=NNc2ncc(Cl)cc2Cl)cc1	.	-0.9	3.7	2.7	.	.	0.1
4	COc1ccc(OC)c(NC(=S)N2CCN(c3ccccn3)CC2)c1	3877	3.6	4.8	3.1	-11.6	-17.8	3.5
5	Oc1oc(-c2ccccc2)nc1/C=N/c1nccs1	2093	.	.	.	-9.5	-3.3	.
6	CCN1C(=O)C2C(c3ccc(-c4cccc(Cl)c4)c(OC)c3)N[C@@](C)(C(=O)OC)C2C1=O (stereo not given in full)	.	0.8	2.7	2.3	.	.	7.2
7	Cc1ccc(CN2CCNC(=O)C2CC(=O)NCCCn2cccn2)o1 (stereo not given)	3782	3.7	8.5	4.8	3.2	-36.4	0.9
8	O=C(c1ccc(CS(=O)(=O)c2ccc(Br)cc2)o1)N1CCCCCC1	5772	.	.	5.4	-2.2	7.6	7.2
9	Cc1nc2ccc([N+](=O)[O-])cc2c(=O)n1Cc1ccc([N+](=O)[O-])cc1	3458	2.8	-1.0	0.5	-4.9	-13.1	10.1
10	CCCCN(C(=O)CSc1nnnn1-c1ccccc1OC)C1CCS(=O)(=O)C1 (stereo not given)	4618	0.9	10.3	4.1	-18.0	-8.5	-0.2
11	COc1ccccc1NCC(=O)N1CCN(S(=O)(=O)c2ccccc2)CC1	?	3.5	10.9	-0.9	.	-21.7	-1.8
12	COc1ccc2nc(/N=C/c3c(C)[nH]n(-c4ccc(C)cc4C)c3=O)sc2c1	9028	.	.	.	1.4	-30.7	.
13	CN(C)C(=O)C(CCN1CCC(O)(c2ccc(Cl)cc2)CC1)(c1ccccc1)c1ccccc1	6650	-8.7	11.9	-4.2	3.5	2.4	-2.1
14	CCOC(=O)c1ccc(CNC(=O)CSc2nnnn2-c2ccc(Cl)cc2)o1	4354	0.0	6.0	2.3	-4.8	-18.9	-3.3
15	COC(=O)c1ccc(OC)cc1OCC(=O)N1CCN(c2ccc(F)cc2)CC1	8717	7.1	11.5	4.5	-3.8	-12.0	3.9
16	O=C(Nc1ccc2c(c1)OCO2)c1cccs1	11138	9.0	7.3	1.1	10.9	-113.0	10.4
17	Cc1ccc(SC(C)C(=O)N2CCC(C(N)=O)CC2)cc1 (stereo not given)	4093	4.3	5.7	3.5	-6.8	-9.0	3.3
18	CCCC(=O)Nc1ccc(C(=O)NNC(=S)NC(=O)c2ccc(Br)o2)cc1	2573	7.6	16.2	6.9	0.2	-0.9	-5.6
19	CCOC(=O)N1CCC(NC(=O)c2ccc3c(c2)N(C)CCS3)CC1	10955	-4.1	12.4	-1.5	.	-3.8	-8.6
20	Cc1cccc2cc(CN(Cc3ccccc3)C(=S)NCCCN(C)C)c(=O)[nH]c12	4577	2.6	5.9	-1.8	.	-13.1	0.5
21	COc1ccc(C)cc1S(=O)(=O)N1CCCCCC1	4267	4.4	6.2	3.9	-17.0	-47.9	3.4
22	COc1ccccc1C(=O)Nc1ccccc1C(=O)NC1CCCCC1	4087	-3.8	-4.6	-3.7	-5.1	1.7	-0.6
23	COc1cc(C(=O)Nc2ccc(Br)cc2C(=O)c2cc(OC)c(OC)c(OC)c2)cc(OC)c1OC	24193*	3.4	3.1	2.7	-14.1	-6.1	4.1
24	Clc1ccc(CNc2ncccn2)cc1	3952	2.9	4.7	5.1	-2.9	-44.9	5.8
25	NS(=O)(=O)c1ccc(CCNC(=O)COC(=O)c2ccc([N+](=O)[O-])o2)cc1	3875	17.3	18.6	3.3	.	-5.8	10.3
26	C[C@H](CO)N1C[C@H](C)[C@H](CN(C)S(=O)(=O)c2ccccc2)Oc2c(NS(C)(=O)=O)cccc2C1=O	3629	1.9	7.1	-11.8	.	-16.6	-6.9
27	CCCCCCN1C=CC=C/C1=C\C=C(C#N)C#N	.	-0.1	2.5	4.4	-2.5	-13.0	1.5
28	O=C(Nc1ccc(F)cc1)c1ccc(NC(=O)C2CCCO2)cc1 (stereo not given)	3691	2.7	-2.3	15.1	0.7	-35.9	0.5
29	CCN1CCN(c2ccc(NC(=O)c3ccc4c(c3)[nH]c(=O)n4Cc3ccc(F)cc3)cc2)CC1	2449	22.6	14.1	2.9	-0.3	-27.7	-7.0
30	N#CCCn1cc(C(=O)CN2C(=O)C(=O)N(C3CCCC3)C2=O)c2ccccc21	5819	3.2	-6.9	0.1	.	-18.2	10.0
31	CCCCCCOc1ccc(C(C)=NNC2=NCCN2)cc1[N+](=O)[O-]	.	7.6	5.3	37.4	.	.	72.9
32	O=C(NCCO)c1cc2c(s1)CCC2	2430	-4.4	2.1	-1.4	5.9	-13.0	-3.8
33	CC(C)C(C(=O)NC1CCCC1)N(CC1CCCO1)C(=O)CNS(=O)(=O)c1ccccc1 (stereo not given)	3172	-2.6	3.1	-2.6	3.2	-1.7	-5.4
34	O=C(Nc1ncc(Cc2cccc(Cl)c2Cl)s1)c1ccc([N+](=O)[O-])cc1	4694	-0.2	1.9	7.5	1.9	6.2	-16.9
35	CCSc1nnc2nc3[nH]c4c(C)cccc4c3nn12	4333	0.8	-3.9	-1.9	-5.0	-38.7	-6.7
36	O=C(c1ccc(Cl)cc1)N1N=CCC1(O)c1ccc(Cl)cc1 (stereo not given)	3684	2.6	3.5	1.9	-15.4	-9.3	8.8
37	CN(C(=O)CSc1nc2scc(-c3ccccc3)c2c(=O)[nH]1)c1ccccc1	4288	12.4	5.3	2.7	.	-12.2	-4.8
38	COc1ccc(C(=O)Nc2cccnc2Sc2ccc(Cl)cc2)cc1	5283	0.7	-10.7	3.9	2.3	-49.3	8.1
39	Cc1ccccc1C(=O)Nc1nnc(CC(=O)N/N=C/c2ccco2)s1	4522	.	.	.	3.4	-17.5	.
40	CCCCOc1ccc(-c2c(C#N)c(N)nc(SCC(N)=O)c2C#N)cc1	2586	.	.	-3.5	0.2	2.7	30.7
41	O=C(/C(=C/O)N=Nc1ccccc1Cl)c1ccccc1	4127	.	.	.	-4.2	-29.1	.
42	COc1ccc(C(=O)NC2CC(C)(C)Cc3c2cnn3-c2ccccc2C)o1 (stereo not given)	5705	-7.2	-4.9	-3.1	8.6	-11.4	-4.9
43	CCCc1cc(=O)n2[nH]c(NCc3ccc(OC)cc3)nc2n1	4326	0.9	4.5	3.2	-6.2	-15.6	-1.7
44	Cn1c(N)c(C(=O)COC(=O)C2(c3ccccc3F)CCCC2)c(=O)n(C)c1=O	3442	10.3	3.8	-16.1	1.5	-12.4	-14.0
45	Cc1c(CCOC(=O)C23CC4(C)CC(C)(CC(C)(C4)C2)C3)sc[n+]1CC(=O)c1ccccc1	2519	5.1	7.8	98.1*	6.1	-21.2	100.5*
46	N#Cc1cc2c(=O)n3ccccc3nc2n(-c2ccccc2Cl)c1=O	4766	0.9	-1.1	3.7	4.9	-20.4	4.0
47	CN(/N=C/c1cccnc1)c1cnc2ccccc2n1	4114	.	.	.	26.8	-124.1	.
48	COCCn1c(C)cc(C(=O)COc2ccc(C)nc2[N+](=O)[O-])c1C	2480	14.9	-7.9	1.2	0.2	18.8	2.9
49	c1ccc2c(c1)CNc1ccccc1O2	2558	0.7	0.0	-14.0	-8.5	-8.0	0.4
50	CSc1nc2nc3c(cc2c(=O)[nH]1)C(O)Oc1ccc(C)cc1-3 (stereo not given)	3449	4.0	4.9	30.2	4.2	-27.8	-3.7
51	CCOc1ccc(CCNC(=O)COC(=O)CCS(=O)(=O)c2ccc(C)cc2)cc1OCC	?	-3.3	9.8	-0.1	-10.7	15.9	1.9
52	CCOc1cc(C=Nn2nnnc2N)ccc1O	.	13.7	8.1	0.7	.	.	2.0
53	O=C1NC(Cc2ccccc2)C(=O)N1Cc1ccccc1 (stereo not given)	2911	14.4	1.1	5.8	.	-11.9	7.2
54	Cc1cc(Cl)c(OCCOCCN2CCNCC2)c(Cl)c1	5758	12.1	9.7	3.3	6.6	-10.8	17.1
55	Cc1ccc(-n2c(C)nnc2SCC(=O)N(C)C2CCS(=O)(=O)C2)cc1 (stereo not given)	3778	6.4	7.6	4.4	.	-14.0	5.3
56	CCOc1ccc(OCc2ccc(C(=O)NC(C)C)o2)cc1	.	6.3	-6.0	-0.2	5.9	-1.3	0.8
57	Brc1cccc(OCCN2CCc3ccccc3C2)c1	4512	3.7	7.5	2.7	-3.7	-18.5	4.3
58	Cc1ccc(C(=O)Nc2ccc(C(=O)NN=Cc3ccncc3)cc2)cc1	.	-6.1	-7.4	2.8	.	.	1.0
59	CCOC(=O)N1CCN(CC(=O)c2ccc3c(c2)CCN3)CC1	11263	0.8	4.6	0.0	0.4	-14.4	1.5
60	O=C(/C=C/c1ccc(Cl)c([N+](=O)[O-])c1)Nc1ccc(N2CCCC2)c(Cl)c1	2442	6.6	0.6	1.3	2.0	-30.2	-4.9

# Later entries.
no.	SMILES	Bead autofluor	Mtb hypoxia inh	Mtb hypoxia inh growth	Sa RN4220 lethal	BJeLR viability	PrP 5UTR inh	ugtP null kill
61	CC1=NN(c2ccccc2)C(=O)C1N=Nc1ccc(C)cc1 (stereo not given)	.	12.6	-0.1	1.5	5.9	.	7.4
62	O=C(NC(=S)Nc1ccc(S(=O)(=O)N2CCOCC2)cc1)c1ccccc1[N+](=O)[O-]	4851	-1.3	-6.4	-1.0	6.3	-28.0	0.8
63	COC(=O)c1ccc(C(=O)NC(=S)Nc2nc3c(s2)CC(C)CC3)cc1 (stereo not given)	2258	14.6	10.9	-0.3	1.3	-30.5	3.6
64	CCCCOn1c(C)c(C(=O)OCC)c2c3no[n+]([O-])c3ccc21	13083	3.8	5.5	11.6	-18.7	-9.2	-14.8
65	CC(C)(C)C1C=C(C(=O)Nc2ccccc2)OC(OCCCCO)C1 (stereo not given)	.	6.1	-2.0	7.3	.	.	6.3
66	COc1ccc(OCCCC(=O)NCc2ccco2)cc1	10879	4.9	2.7	4.4	-1.9	-12.1	3.9
67	CS(=O)(=O)N(CC(=O)NCc1ccco1)c1ccc(Cl)c(C(F)(F)F)c1	9791	8.5	4.8	2.5	5.4	-20.4	-5.7
68	CC(OC(=O)c1ccc(S(=O)(=O)N2CCCCC2)cc1)C(=O)Nc1ccc(C(N)=O)cc1 (stereo not given)	3441	4.3	-2.7	1.5	.	-28.4	1.0
69	O=C(N/N=C/c1cccc(Cl)c1)C1CCCC1	6323	.	.	.	0.4	-18.7	.
70	COc1cccc(/C=C/C(=O)NCCc2ccc(OC)c(OC)c2)c1	2174	0.9	-0.8	2.8	1.9	-8.5	0.8
71	COc1ccc(-c2nn(-c3ccccc3)cc2C(=O)Nc2nccs2)cc1OC	3101	-2.6	0.7	4.4	-8.7	-2.7	-9.4
72	NC(=NC(=O)c1ccc(OCC(F)(F)F)nc1)c1ccc(Cl)cc1	3772	1.2	12.4	-10.8	6.8	-10.6	-8.7
73	Cc1occc1C(=O)NNC(=O)CN1C(=O)NC(C)(c2ccccc2)C1=O (stereo not given)	?	7.6	2.0	3.7	-10.2	-15.7	14.7
74	COC(=O)c1noc(C)c1-c1ccnn1C(=O)c1ccc(C)cc1	3369	2.0	-1.5	2.0	0.3	-24.9	12.5
75	C#CC1(NC(=O)NCCCC)CCCCC1	2834	.	.	3.3	8.0	-9.1	3.4
76	CCn1c(SCC(=O)N2CCCC2)nc2c(c1=O)SC(C)C2 (stereo not given)	5256	13.7	11.8	-11.4	4.6	-7.8	-6.4
77	COc1cc(C(=S)N2CCOCC2)ccc1OC(=O)c1ccccc1C	3373	-2.0	5.0	2.0	17.8	-16.0	3.9
78	O=C(COC(=O)c1ccc(Cl)nc1)NCc1ccc(F)cc1	?	-0.1	8.8	-2.6	.	-20.5	-5.9

# Record cards, as listed above. Order of screens: Bead autofluor, Mtb hypoxia inh, Mtb hypoxia inh growth, Sa RN4220 lethal, BJeLR viability, PrP 5UTR inh, ugtP null kill
# O=C(NC(=S)Nc1ccc(S(=O)(=O)N2CCOCC2)cc1)c1ccccc1[N+](=O)[O-] across the screens: 4851, -1.3, -6.4, -1.0, 6.3, -28.0, 0.8
# COC(=O)c1ccc(C(=O)NC(=S)Nc2nc3c(s2)CC(C)CC3)cc1 (stereo not given) across the screens: 2258, 14.6, 10.9, -0.3, 1.3, -30.5, 3.6
# CC1=NN(c2ccccc2)C(=O)C1N=Nc1ccc(C)cc1 (stereo not given) across the screens: ., 12.6, -0.1, 1.5, 5.9, ., 7.4
